Source: PubChem (National Center for Advancing Translational Sciences (NCATS))
nsP2pro primary = CHIKV nsP2 protease inhibition, primary qHTS; FRET peptide cleavage, nsP2pro, fluorescence 1 h; Potency, µM (titrated, usually from 24.9 µM), inactives show at the highest dose activity change, negative = inhibition, most hits filed as inhibitors; 1.1% of 31,000 active; AID 1964107; active means well fitted inhibition curve with a large enough effect; inconclusive means small, poorly fitted or top-dose-only effect; inactive means no such curve, though single readings can be large or run the other way; further: nearly all actives have a fitted effect of over 60% in size; a reference inhibitor and vehicle were the controls
The depositor's hits bear a star; i = inactive; ? = inconclusive; & = joins results of further samples; [ ] = remark or other dose. On the % scale 0 is the no-effect control and ±100 the full control effect; potency means the concentration at half of the fitted maximal effect. This is a subset; count on the stated rates, not on these rows.

mol | nsP2pro primary
COC(=O)C1=CO[C@@H](O)[C@@H]2C(CO)=CC[C@H]12 | 11%
O=C(O)c1c(-c2ccccc2)oc2ccc(OCc3c(F)cccc3Cl)cc12 | 6%
COc1cc(NC(=O)CSc2ncccc2C(=O)OC(C)C)cc(OC)c1 | -15%
CCOC(=O)c1c(C)oc2nc(C)nc(N3CCN(c4cc(Cl)ccc4C)CC3)c12 | -26%
COc1ccccc1CNc1ccc(-c2nc(-c3cccnc3)no2)cc1[N+](=O)[O-] | -10%
Cc1ccc(Cl)cc1-n1ncc2c(NCCCc3ccccc3)ncnc21 | -18%
Cc1nc(-n2nc(C)c(Cc3ccc4c(c3)OCO4)c2C)sc1C(=O)Nc1cccc(Cl)c1 | -15%
C/C(=C/CCC(CO)C1CCC2(C)C3CCC4C(C)(C)C(OC5OC(CO)C(O)C(O)C5O)CC(O)C45CC35CCC12C)COC1OC(CO)C(O)C(O)C1O (stereo not drawn) | -7%[10 µM]
O=C(C1CCc2nnc(-c3ccc(Cl)cc3Cl)n21)N1CCCC1 (stereo not drawn) | -7%
CCCC(=O)Nc1nnc2n1CCS2 | -13%
Cc1cccc(C2N3CC4(C(C)C)CN2CC(C(C)C)(C3)C4=O)c1 (stereo not drawn) | -16%
Cc1ccc(OCCC2CCN(C(=O)c3cc(CN4CCOCC4)on3)C2)cc1 (stereo not drawn) | 2%
CCCOc1ccc(C(=O)Nc2ccc(NC(=O)c3ccccc3)c(Br)c2)cc1 | -18%
O=C(Cn1c(=O)n(Cc2nc(-c3ccccc3)no2)c(=O)c2cc3c(cc21)OCO3)Nc1ccc(Cl)cc1 | -14%
C[C@]1(O)CCN(C(=O)CCS(=O)(=O)c2ccccc2)C[C@@H]1O | i
O=C(COc1ccccc1)NCCn1cccc1-c1nc(-c2ccc3c(c2)OCO3)no1 | i
Cc1cccc(-c2csc3ncnc(Sc4nnnn4C)c23)c1 | i
O=[S+]([O-])(c1c(F)cccc1F)N1CCN([S+](=O)([O-])c2csc3ccccc23)CC1 | 1%
CCOc1ccc(CC(=O)NC2CC(=O)N(c3ccc4c(c3)OCCO4)C2)cc1 (stereo not drawn) | -1%
O=C(NCC(F)F)C1CCCN1C(=O)c1cccc(-c2ccccn2)c1 (stereo not drawn) | 1%
CC(=O)c1ccc(NS(=O)(=O)c2cc(-c3cnc(C4CC4)o3)ccc2C)cc1 | -1%
Cc1cn2nc(C(=O)N3CCC(NC(=O)COc4ccccc4)CC3)cc2c(=O)[nH]1 | i
CCn1nnc2cc(C(=O)Nc3cccc(Cl)c3)ccc21 | -8%
COc1cc(NC(=O)CC2C(=O)OCCN2Cc2ccccc2)cc(OC)c1 (stereo not drawn) | -22%
CC1(C)CCCC2(C)C1CC=C1C(=O)OC(O)C12O (stereo not drawn) | 0%

Next records:
mol | nsP2pro primary
COCCCNC(=O)c1cn(CCOC)c(=O)c2c1c1ccccc1n2C | -15%
C/C=C(\C)C(=O)OC1C2(O)CC3=C4CC(=O)OC(c5ccoc5)C4(C)CCC3C(C)(C2=O)C(C(OC(C)=O)C(=O)OC)C1(C)C (stereo not drawn) | -16%[10 µM]
CCC(C)(OC(C)=O)C(=O)O[C@H]1[C@H](OC(C)=O)C[C@@H]2[C@@](C)([C@@H]3C[C@H]4C=CO[C@H]4O3)[C@H](C)C[C@H](OC(C)=O)[C@@]2(COC(C)=O)[C@@]12CO2 (stereo partly drawn) | ?
Cc1ccccc1C(=O)Nc1ccc(NC(=O)c2cccs2)cc1 | 18%
CC(C)C(=O)Nc1cccc(C2CN3CCSC3=N2)c1 (stereo not drawn) | 2%
Cc1cccc(CCn2c(=O)c3ccccc3n(CC(=O)Nc3ccccc3F)c2=O)c1 | -27%
CCOc1ccc(N2C(=O)c3n[nH]c(-c4cccs4)c3C2c2cccc(F)c2)cc1 (stereo not drawn) | -12%
O=C(Nc1ccccc1C(=O)OCc1cc(=O)n2c3c(sc2n1)CCCC3)c1ccccc1 | -3%
CCOc1ccc(CCNC(=O)c2ccc(C(=O)c3ccccc3)cc2)cc1OCC | -9%
O=C(CSc1nc2ccsc2c(=O)n1Cc1ccccc1F)NCc1ccccc1Cl | -20%
CCn1nc(C)cc1C(=O)NCc1cccnc1N1CCOCC1 | i
O=C(NCc1ccc2c(c1)CCN2C(=O)c1ccc(F)cc1)c1ccco1 | -24%
COc1ccc2c(Sc3ccccc3)c(C(=O)NCCCN3CCCCC3)[nH]c2c1 | 2%
O=C1CCCC2=C1C1(CCCC1)N=C(Nc1nc3cc(-c4ccccc4)ccc3o1)N2 | 5%
CCOc1ccccc1C(=O)NC1CCN(c2cc(C)cc(C)c2)C1=O (stereo not drawn) | i
OC[C@@H](O)[C@@H](O)[C@H](O)[C@H](O)CO | -12%&-19%
Cc1c(-c2nc(-c3ccc4c(c3)OCO4)no2)nnn1-c1cccc(C(F)(F)F)c1 | -15%
CC(=O)c1ccc(NC(=O)N[C@H]2CO[C@H]3[C@@H]2OC[C@@H]3Nc2nccc(-c3ccco3)n2)cc1 | -11%
O=C1NCCCCCCN(C(=O)c2ccco2)[C@H]2C[C@H](c3nc(-c4cnccn4)no3)C[C@@H]12 | -4%
CCN1CCN(c2cc3c(cc2F)c(=O)c(C(=O)O)cn3C2CC2)CC1 | 8%
C=C1CCC2(OC1)OC1CC3C4CC=C5CC(O)CC(O[C@@H]6OC[C@H](OC(=O)C(O)C(C)CC)[C@H](O)[C@H]6O[C@@H]6O[C@@H](C)[C@H](O)[C@@H](O)[C@H]6O)C5(C)C4CCC3(C)C1C2C (stereo partly drawn) | ?
COc1cc2nc(SCc3ccc(F)cc3)n3nc(CCn4c(C)nc5ccccc54)nc3c2cc1OC | -10%
CCOc1ccc(N(C)S(=O)(=O)c2cc(-c3cnc(C)o3)ccc2OC)cc1 | -6%
O=NCc1ccc([N+](=O)[O-])o1 | -23%
O=C(O)c1cccc(-c2cccc(-c3nn4c(=O)cc(N5CCNCC5)nc4s3)c2)c1 | i

Some of the entries above, set out differently:
COc1ccc2c(Sc3ccccc3)c(C(=O)NCCCN3CCCCC3)[nH]c2c1
  nsP2pro primary: 2%

O=C1CCCC2=C1C1(CCCC1)N=C(Nc1nc3cc(-c4ccccc4)ccc3o1)N2
  nsP2pro primary: 5%

CCOc1ccccc1C(=O)NC1CCN(c2cc(C)cc(C)c2)C1=O (stereo not drawn)
  nsP2pro primary: i

OC[C@@H](O)[C@@H](O)[C@H](O)[C@H](O)CO
  nsP2pro primary: -12%&-19%

(more compounds)
mol | nsP2pro primary
C=C1CCC2C(C)(C(=O)O)CCCC2(C)C1CC/C(=C\CO)CO (stereo not drawn) | 33%
CCOC(=O)c1cc(-c2ccccc2)n(CCC(=O)NCc2ccccc2Cl)c1C | -5%
Cn1cc(C(=O)Nc2ccc(C#N)cc2)c2ccccc2c1=O | -2%
Cc1nc(-c2ccc(S(=O)(=O)N(Cc3ccccc3)C(C)C)cc2)co1 | -3%
C/C=C(/C)C(=O)O[C@@H]1C[C@@H](OC(=O)/C(C)=C\C)[C@@]2(C)C3C(=O)C=C(C)C2C3C1(C)C | 2%[10 µM]
O=C1CN(C(=O)Nc2ccccc2C(F)(F)F)C(c2ccccc2)c2c(sc3c2CCCC3)N1 (stereo not drawn) | -9%
CC12Cc3cn[nH]c3C=C1CCC1C2CCC2(C)C1CCC2(C)O (stereo not drawn) | 70%[activator]
C1CCC[C@H]2CCCN3CC[C@H](CCCCCC[C@@H]4CCCN5CC[C@H](CC1)O[C@H]45)O[C@H]23 | -7%[0.0407 µM]
Cc1cccc(-c2[nH]ncc2-c2ccnc3ccccc23)n1 | 28%
O=C(NCCN1CCCC1)C1CCN(c2cnn(CC3CC3)c(=O)c2)C1 (stereo not drawn) | i
Cc1ccc(CCNC(=O)c2c[nH]c3ccc(S(=O)(=O)Nc4ccc(C)cc4C)cc3c2=O)cc1 | -13%
CCOc1ccc(NS(=O)(=O)c2ccc(N)cc2)nn1 | -6%
O=C([C@H]1CN2CCC1C[C@@H]2Cn1cc(-c2ccccn2)nn1)N1CCOCC1 (stereo partly drawn) | i
CCOc1ccc(CCNC(=O)c2cc3sccc3n2Cc2ccccc2)c(F)c1OCC | 3%
Nc1cccc(-c2ccc(NC(=O)c3cccs3)cn2)c1 | -14%
COCCNC(=O)c1cc2c(Cl)nc3ccc(C)cc3c2s1 | 13%
COc1ccc(CNC(=O)C2CCCN(S(=O)(=O)c3ccc4c(c3)CCCN4C(C)=O)C2)cc1 (stereo not drawn) | -6%
CCCc1nc(C(=O)NC(CC)c2ccc(S(C)(=O)=O)cc2)cs1 (stereo not drawn) | -4%
Cc1ccc(CNS(=O)(=O)c2cc(Br)cc3c2N(C(=O)C2CC2)CC3)cc1 | -19%
CCN1C(=O)N(c2c(F)c(OC)cc(OC)c2F)Cc2cnc3[nH]c(CN4CCOCC4)cc3c21 | -9%
C[C@@H](NCC1CCCC1)c1onc(-c2ccc(Cl)cc2)c1C(=O)O | -4%[39.2 µM]
O=C(Nc1ccccc1-c1cn2c(CN3CCNCC3)csc2n1)c1cnc2ccccc2n1 | 43%
CC(C)(C)c1ccc(-c2ccc(=O)n(CC(=O)NCCc3ccccc3)n2)cc1 | 4%
Cc1ccc(C)c(N2CCN(C(=O)Cn3ncc4c(=O)oc5ccc(C)cc5c43)CC2)c1 | -27%
COc1cccc(-c2nc(CS(=O)(=O)CC(=O)NCCCN3CCN(C)CC3)c(C)o2)c1 | -3%

The list continues.
mol | nsP2pro primary
CN(C)CCC(c1ccc(Br)cc1)c1ccccn1 (stereo not drawn) | 0%
O=C1CCN(C(=O)[C@H](Cc2ccccc2)NC(=O)c2ccoc2)CCCOCCN1 | 4%
CCCN(C)C(=O)CC1COCCN1C(=O)Nc1cccc(SC)c1 (stereo not drawn) | -2%
O=C(Nc1ccc(F)cc1)N1CCc2ccccc2C1c1ccc(C(F)(F)F)cc1 (stereo not drawn) | ?
CCOc1ccc(-n2c(=O)c3c(C)c(C)sc3n(CC(=O)c3ccccc3)c2=O)cc1 | -19%
Cc1ccc(NC(=O)CSc2nc3ccccc3n2CC(=O)N(C)C2CCCCC2)cc1C | -10%
CCc1ccccc1-n1c(C)nc2cc(C(=O)NCCc3ccc(Cl)cc3)ccc21 | -3%
O=C1CC(c2noc(COc3ccccc3)n2)CN1C1CCCCC1 (stereo not drawn) | i
O=C(c1ccc(Br)s1)N(Cc1cccnc1)c1nc2ccc(F)cc2s1 | -15%
Cc1cccc(C(=O)Nc2ccc3oc(-c4cccc5c(Br)cccc45)nc3c2)c1 | -21%
COc1ccc(NC(=O)C2CCCN(S(=O)(=O)c3ccc4[nH]c(=O)ccc4c3)C2)cc1Cl (stereo not drawn) | 6%
Cc1cc(C)c(S(=O)(=O)N(Cc2ccc(-c3cccc(S(C)(=O)=O)c3)cc2)Cc2ccc(C(F)(F)F)o2)c(C)c1 | -13%
CC(C(=O)N1CCN(c2cc(-c3ccccc3)[nH]n2)CC1)c1ccccc1 (stereo not drawn) | i
COc1cc2c(cc1OC)[C@@H]1CC(=O)[C@@H](CC(C)C)CN1CC2 | -8%&-23%
C[C@@H]1C(=O)OC[C@H]2C(C(=O)O)=C[C@@H]3CC(C)(C)C[C@]312 | 34%[activator]
O=C1CC[C@@H](C(=O)N2CSC[C@H]2C(=O)O)N1 | ?
CN(Cc1ccc(C(C)(C)C)cc1)Cc1cccc2ccccc12 | 27%
Cc1ccc(-n2cccc2CC(=O)N2CCOCC2)cc1 | ?
CCc1nn2c(=O)c(S(=O)(=O)Nc3cccc(F)c3)c(C)nc2s1 | -4%
CC(C)CC(=O)N1[C@@H](c2ccco2)[C@@H](CO)C[C@]12CCCCN(CCO)C2=O | ?
Cc1[nH]c2ccc(C(=O)NCCCN3CCCCC3)cc2c1C | -9%
CCOc1ccc(S(=O)(=O)N(CC(=O)NCCc2ccc(OC)c(OC)c2)c2ccccc2)cc1 | -21%
CCCCC[C@H](O)/C=C/[C@@H]1[C@H]2C/C(=C/CCCC(=O)O)O[C@H]2C[C@H]1O | 4%
CC(C)Cn1c(=O)c2ccccc2n2c(CCC(=O)N3CCN(c4ccccc4F)CC3)nnc12 | -3%
COc1ccc(-c2ccc(Nc3nc(-c4ccncc4)nc4ccccc34)cc2F)cc1F | 2%

(cont.)
mol | nsP2pro primary
O=C(CC1C(=O)NCCN1CC(c1ccccc1)c1ccccc1)NCc1ccco1 (stereo not drawn) | ?
NC(=O)C1CCN(c2ncc(-c3cccc(N4CCCCC4)c3)s2)CC1 | i
CCCn1cnc2c1CN(S(=O)(=O)c1ccccc1)[C@H](C(=O)OC)C2 | ?
Cc1cc(-c2nnc3n2CCCCC3)c(C)n1-c1ccc(C#N)cc1 | i
COc1ccc(NS(=O)(=O)c2cc3[nH]c(=O)c(=O)[nH]c3cc2C)cc1OC | -17%
O=C(CN1CCOCC1)NC1CCc2nnc(C3CC3)n2CC1 (stereo not drawn) | 0%
CCOC(=O)Cc1ccc(NC(=O)N(Cc2ccc(OC)cc2)C2CCN(C(C)=O)CC2)cc1 | -19%
c1cc(-c2n[nH]c(CC3CCNC3)n2)ccn1 (stereo not drawn) | i
Cn1cc(S(=O)(=O)c2ccc(Cl)cc2)c2cccc(N3CCNCC3)c21 | 102%[activator]
O=C(O)C(=O)Nc1cccc(-c2nn[nH]n2)c1 | ?
O=C(Cn1ncc2ccsc2c1=O)N1CCN(c2ccc(Cl)cc2)CC1 | -12%

A portion from the list above, for reference:
mol | nsP2pro primary
Cn1cc(S(=O)(=O)c2ccc(Cl)cc2)c2cccc(N3CCNCC3)c21 | 102%[activator]
O=C(O)C(=O)Nc1cccc(-c2nn[nH]n2)c1 | ?
O=C(Cn1ncc2ccsc2c1=O)N1CCN(c2ccc(Cl)cc2)CC1 | -12%
